Assay outcomes as filed in PubChem.
gsp agonist = activates gsp, the McCune-Albright syndrome mutation. gsp mutant cells, cAMP HTRF, 30 min; control for the full effect not named in the record. Potency, µM (series often up to 76.9 µM), for the others: at the highest dose activation (cAMP increase), hits mostly activators. 0.13% of 340,000 active; active = well fitted activation curve with a large enough effect; inconclusive = small, poorly fitted or top-dose-only effect, or another doubt; inactive = no such curve, though single readings can be large or run the other way; cell line not stated here;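 note: phosphodiesterase inhibitor Ro 20-1724 added with compounds to block cAMP breakdown; potency is the fitted concentration of half-maximal effect; nearly all actives have a fitted effect of over 60% in size; about a fifth of the inactives were tested at one dose only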
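Cells stably selected in G418 were plated at 2000/well, grown 16-24 hr, then given compounds in DMSO with the PDE inhibitor […] (300 uM solution added) for 30 min at 37C; cAMP was read by HTRF.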
Sfp inh = blocks B. subtilis Sfp PPTase activity | Q9F4F7 | Biochemical Sfp PPTase activity, qHTS | Potency, µM, for inactives: max response, negative = inhibition, actives largely listed as inhibitors | 3.5% of 310,000 active; active = well fitted inhibition curve with a large enough effect; inconclusive = small, poorly fitted or top-dose-only effect, or another doubt; inactive = no such curve, though single readings can be large or run the other way;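 note: the enzyme is Sfp with the accession as filed and its product quenches rhodamine fluorescence; potency is the fitted concentration of half-maximal effect; 0% = enzyme reaction without inhibitor and -100% = no enzyme wells; top concentration of the series not given in the record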
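After 15 min at room temperature with compound, 15 nM Sfp received 5 uM rhodamine-CoA plus 12.5 uM BHQ-2-ybbR (50 mM Hepes pH 7.6, 10 mM MgCl2). Rate came from the fluorescence difference over 30 min, ex 525/em 598 nm.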
gsp antagonist = antagonists of gsp mutant (McCune-Albright syndrome). Potency, µM (series often up to 76.9 µM), for the others: at the top dose activity change, negative = inhibition, most hits filed as inhibitors. gsp-mutant cells, cAMP HTRF, 30 min; control for the full effect not named in the record. AID 624288. 0.4% of 340,000 active; active = falling curve of any shape with a large fitted effect; inconclusive = falling curve, mostly with a smaller effect; inactive = flat or rising curve; cell line not stated here;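 note: intracellular cAMP measured with PDE inhibitor Ro 20-1724 present during compound exposure; potency is the fitted concentration of half-maximal effect; % is set by controls: 0 for no effect and ±100 for the full control effect; nearly all actives have a fitted effect of over 65% in size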
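G418-selected cells were plated in DMEM/10% FBS for 16-24 h at 37C, then treated with compounds plus the PDE inhibitor […] (300 uM solution added) for 30 min at 37C. Intracellular cAMP was measured by HTRF after 30 min lysis at room temperature.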
Menin-MLL FL inh = inhibitors of human menin-MLL interaction, wild-type MLL peptide | Fluorescence polarization, fluorescein-MLL peptide displacement from menin | FP activity change, % at 61.4 µM | 290,000 tested, under 10 active | AID 1766; inconclusive = falling polarisation curve, or a change in total fluorescence; inactive = total fluorescence flat and polarisation flat or rising; no compound was filed as active; the % refers to the polarisation; negative = inhibition;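 note: % of control where 0% means no effect; inhibitors lower the polarisation; unlabelled MLL peptide was the positive control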
D2 PAM = positive allosteric modulators of human D2 dopamine receptor; P14416; DiscoveRx D2 beta-arrestin cells, luminescence, 90 min; 100% = 57 uM dopamine signal; potentiation, % (concentration not given with the values); 0.23% of 360,000 active; AID 624464; active = potentiation of 50% or more; inconclusive = 30% to 50%; inactive = 30% or less;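 note: compound concentration not given in the record; tested on top of an EC20 dose of dopamine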
Target sequence (P14416 whole entry, looked up): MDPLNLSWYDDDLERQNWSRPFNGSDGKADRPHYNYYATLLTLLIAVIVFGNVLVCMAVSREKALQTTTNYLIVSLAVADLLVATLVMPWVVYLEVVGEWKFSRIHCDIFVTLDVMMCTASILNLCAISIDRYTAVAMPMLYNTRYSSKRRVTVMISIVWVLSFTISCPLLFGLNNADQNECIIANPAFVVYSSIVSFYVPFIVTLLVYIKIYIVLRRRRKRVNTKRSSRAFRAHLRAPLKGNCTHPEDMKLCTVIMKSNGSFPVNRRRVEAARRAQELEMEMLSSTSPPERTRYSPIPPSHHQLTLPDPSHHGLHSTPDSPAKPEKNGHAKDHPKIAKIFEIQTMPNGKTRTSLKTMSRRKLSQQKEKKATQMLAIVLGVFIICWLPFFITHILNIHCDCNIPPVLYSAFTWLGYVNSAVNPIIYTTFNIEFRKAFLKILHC
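PathHunter beta-arrestin assay in DiscoveRx D2 cells. Compounds were added with an EC20 of dopamine (50 nM final) for 90 min at 37 deg C. Luminescence was read 1 h after detection reagent, with 57 uM dopamine as the EC100 control.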
TRPV1 PAM = enhances activation of the human vanilloid receptor TRPV1; Q8NER1; TRPV1-expressing cells, Fluo-8 calcium influx, capsaicin EC20 potentiation; host cell line not named in the record; control for the full effect not named in the record; potentiation, % at 8.33 µM; 0.02% of 320,000 active; AID 540277; active means potentiation above 80%; inconclusive means 30% to 80%; inactive means below 30%; note: 0% is about no effect
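Fluo-8 calcium influx in TRPV1-expressing cells, kinetic read (ex 480/em 520 nm). Compound added and read 3 min for agonist activity, followed by capsaicin at EC20 final and 2 min further read for enhancement.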
ClpP mod = qHTS Assay for Activators of ClpP | ATP-dependent Clp protease proteolytic subunit (Bacillus subtilis (strain 168)), P80244 | Potency, µM (doses to about 57.5 µM), for the others: at the highest dose activity change, negative = active | purified B. subtilis ClpP, FRET peptide cleavage, 20 min | 1.9% of 340,000 active; active = well fitted falling curve with a large enough effect; inconclusive = small, poorly fitted or top-dose-only effect; inactive = no such curve, though single readings can be large or run the other way; note: potency is the fitted concentration of half-maximal effect; the source files actives as falling curves though it sought activators and does not explain the sign; nearly all actives have a fitted effect of over 65% in size; many hits overshoot -100%
Target sequence (P80244 whole entry, looked up): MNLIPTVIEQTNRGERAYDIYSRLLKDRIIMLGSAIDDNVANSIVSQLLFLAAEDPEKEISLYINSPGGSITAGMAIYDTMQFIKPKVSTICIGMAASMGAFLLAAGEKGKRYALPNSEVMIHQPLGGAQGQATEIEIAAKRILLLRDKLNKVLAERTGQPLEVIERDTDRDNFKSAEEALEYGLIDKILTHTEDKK
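FRET quenching reversal measured ClpP activation: 10 microg/mL B. subtilis ClpP at pH 8 with the FRET-FV decapeptide, read at 430 nm after 320 nm excitation. The 20-min minus 0-min signal was scaled between DMSO/no-enzyme wells and ADEP (5.8 microM final).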
* marks the source's active call; other numbers are inactive results; ? = inconclusive; · = not tested or not shown; [ ] = dose if it differs, or a comment.

Every second line gives: gsp agonist	gsp antagonist	TRPV1 PAM	ClpP mod	Menin-MLL FL inh	Sfp inh	D2 PAM
NS(=O)(=O)c1ccc(CNc2ncnc3sccc23)cc1
    -1%[15.4 µM]	-8%	-1	·	6.4	22%	5
CC(OC(=O)c1cc[n+]([O-])cc1)C(=O)Nc1ccc(Cl)cn1 (stereo not given)
    -30%[inhibitor]	2%	2	0.8%	-1.4	6%	-12
Cc1ccc2c(CN3C(=O)NC4(CCCCC4)C3=O)cc(=O)oc2c1C
    5%	6%	9	-19%	1.3	8%	-12
CCN1/C(=C2/SC(=S)N(NC(C)=O)C2=O)Sc2ccccc21
    25%	-7%	-7	-1.1%	?	12%	-28
Cc1nn(CC(=O)NC2CCS(=O)(=O)C2)c(C)c1[N+](=O)[O-] (stereo not given)
    -1%[15.4 µM]	0%	·	-3.3%	·	·	-27
COc1ccccc1C(=O)N(Cc1nc(-c2ccc(Cl)cc2)no1)C(C)C
    -32%[inhibitor]	-30%	27	0.7%	0.4	-3%	-3
Cc1ccc(C(=O)Nc2ccccc2N2CCCCC2)cc1
    7%	-13%	-12	·	-1.7	5%	-3
Cc1csc(=S)n1-c1ccccc1
    7%	4%	-5	-0.6%	-0.5	18%	8
N#CC(CC(=O)OCc1ccccc1)NC(=O)OCc1ccccc1 (stereo not given)
    2%	·	·	1.0%	·	·	-12
CCc1ccc(-c2nc(C(N)=O)c3[nH]c(=O)n(-c4ccccc4OC)c3n2)cc1
    -3%	9%	14	4.2%	-1.0	10%	1
O=c1oc2ccccc2c(=O)c2ccccc12
    -3%	?	·	·	·	·	-4
Cn1c(=O)c2c(nc(OC3CCCC3)n2C)n(C)c1=O
    16%	0%	·	-3.3%	·	·	10
COc1ccc2cc(C#N)c(Nc3cccc(F)c3)nc2c1
    -4%[15.4 µM]	-22%	0	-2.1%	1.6	24%	-5
O=C(NCC1CCCO1)c1cccc(S(=O)(=O)Nc2ccc(F)cc2)c1 (stereo not given)
    3%	-20%	11	0.1%	·	·	1
O=C(O/N=C(\c1ccccc1)c1ccccn1)c1ccc(Cl)c(Cl)c1
    17%	4%	6	-1.7%	1.1	2%	2
COc1cc2sc(C)nc2cc1C
    -23%[15.4 µM]	12%	-2	·	-1.4	7%	0
O=c1[nH]c(SCc2ccccc2)nc2c1sc1ccccc12
    13%[15.4 µM]	-2%	5	·	-2.4	2%	-4
O=C(CCNC(=O)c1ccccc1Cl)Nc1ccc2c(c1)OCCO2
    -23%	·	·	-2.4%	·	·	-15
CCOC(=O)C1=C(N)Oc2cc(O)ccc2C1c1cccc(Cl)c1 (stereo not given)
    -3%[15.4 µM]	-6%	-6	-3.9%	13	17%	10
Cc1ccccc1OCC(=O)N/N=C/c1c(C)nn(-c2ccccc2)c1Cl
    -78%[inhibitor]	9%	0	0.3%	0.2	0%	-1
CCOc1ccccc1C1CC(c2cccs2)=NN1S(C)(=O)=O (stereo not given)
    -5%[15.4 µM]	-3%	11	·	?	17%	-10
Cc1cc(O)ccc1Nc1nc(-c2cccnc2)cs1
    -71%[15.4 µM]	-1%	5	-2.6%	-3.9	3%	7
O=C(NCCC1=CCCCC1)C1CCN(c2nnc(-n3cccc3)s2)CC1
    ?	-13%	-17	-2.6%	0.4	-2%	-1
Cc1cc(C(=O)NNC(=O)C(C)NS(=O)(=O)c2ccccc2F)c(C)o1 (stereo not given)
    3%	5%	·	-1.2%	·	·	-4
C#Cc1ccc(CN2CCC(Oc3ccc(C(=O)NCc4ccccn4)cc3)CC2)cc1
    ?	-3%	-16	-1.5%	-5.2	-4%	-31
CCC(C)NS(=O)(=O)c1ccc(NC(=O)c2c(-c3ccccc3)noc2C)cc1 (stereo not given)
    -9%	-12%	·	0.3%	2.0	20%	-2
CCOc1cc(CNCCCN2CCOCC2)cc(Br)c1OCC(=O)Nc1cccc(C(F)(F)F)c1
    -39%[inhibitor]	17%	-13	0.5%	-3.7	-16%	-3
Cc1[nH]c(C)c(S(=O)(=O)Nc2ccc(F)cc2Cl)c1C(=O)N1CCCC1
    -106%[inhibitor]	12%	-18	0.4%	-3.4	16%	-7
O=C(Nc1ccccn1)c1ccc(S(=O)(=O)N2CCCC2)cc1
    0%[15.4 µM]	-3%	-12	·	·	·	-2
O=c1c2sccc2nc(SCc2cc(=O)n3cc(Cl)ccc3n2)n1-c1ccc(F)cc1
    4%[15.4 µM]	13%	-33	?	14	?	-10
Cc1cccn2c(=O)c3cc(S(=O)(=O)c4ccccc4)c(=N)n(Cc4ccc(F)cc4)c3nc12
    ?	11%	-15	-4.4%	?	17%	-1
Cc1cc(C)nc(NS(=O)(=O)c2ccccc2)n1
    7%	3%	4	-2.4%	-0.1	4%	-3
c1ccc(OCc2nc(-c3ccncc3)no2)cc1
    -2%[15.4 µM]	1%	-1	-1.9%	-1.5	-17%	10
COC(=O)c1cc(OC)c(OC)cc1NCC(=O)Nc1ccc(OC)c(OC)c1
    -6%	-19%	7	?	1.4	3%	-5
O=C(c1ccc(CS(=O)Cc2ccc(Cl)cc2)o1)N1CCN(c2ccccc2F)CC1 (stereo not given)
    12%	-17%	?	0.9%	3.4	2%	-15
CCOc1ccccc1C1NC(=O)c2ccccc2O1 (stereo not given)
    -11%[15.4 µM]	-9%	1	-2.3%	1.8	11%	-26
CSCCC(NC(N)=O)C(=O)Nc1cccc(C#N)c1 (stereo not given)
    -12%	9%	-6	·	1.2	6%	-3
CCc1nnc(NC(=O)CCC(=O)N2CCN(Cc3ccc(C)cc3C)CC2)s1
    5%	3%	2	·	·	17%	-11
CCc1ccc(OCc2n[nH]c(=S)n2Cc2ccccc2)cc1
    25%	-15%	0	·	-0.1	4%	-10
COc1ccc(/C=C2/C(=O)N=C(N)N2C)cc1OC
    -72%[inhibitor]	-6%	-6	-1.3%	6.2	31%[activator]	-12
O=C(NCCNC(=O)c1ccccc1)c1ccccc1
    -31%[inhibitor]	-5%	2	0.2%	0.3	?	0
Cc1cccc(C)c1NC(=O)[C@@]1(CC(=O)O)CC(/C=C/c2ccccc2)=NO1
    21%[15.4 µM]	5%	18	·	2.4	6%	4
Cc1c(NC(=O)C(C)Oc2cccc(Cl)c2)c(=O)n(-c2ccccc2)n1C (stereo not given)
    -10%	7%	11	-1.7%	·	·	-15
CC(C)c1nnc(NC(=O)CCC(=O)NC2CCCCCC2)s1
    -6%	16%	-3	-0.5%	·	19%	0
CCCn1nc2cc(C(=O)NCc3ccccc3)ccc2c1OCC
    ·	-5%	16	4.4%	1.7	3%	-39
COc1ccc(-c2[nH]ncc2CN2CCCOc3c(cccc3OC)C2)c(OC)c1
    -6%[15.4 µM]	6%	2	·	2.4	22%	-2
Cc1nc2sc(C(c3ccc(F)cc3)N3CCN(C(=O)c4ccco4)CC3)c(O)n2n1 (stereo not given)
    -64%[inhibitor]	2%	-1	-1.5%	-1.2	9%	-10
CN(CCCNC(=O)Cn1cccc1C(=O)c1ccccc1)C1CCCCC1
    -15%	3%	1	1.2%	0.4	16%	-16
CCCCSCCCNC(=O)C1CCC(CNS(=O)(=O)c2ccc(NC(C)=O)cc2)CC1 (stereo not given)
    19%	12%	2	0.9%	-3.2	-2%	-6
CC(C)NC(=O)c1onc(CSc2ccc(F)cc2)c1C(=O)NC(C)C
    -2%	1%	-1	2.9%	·	·	-10
COc1cc(NC(=S)N2c3ccccc3CC2C)cc(OC)c1 (stereo not given)
    -75%[inhibitor]	-9%	6	-0.8%	0.1	9%	2
Cc1cc(S(=O)(=O)NCc2cccs2)ccc1-n1cnnn1
    0%	-1%	9	0.7%	0.5	17%	-15
Nc1ccccc1C(=O)C[C@H](N)C(=O)O
    ·	0%	·	-1.4%	·	71µM*	-9
O=C(CCCCCn1c(=S)[nH]c2ccccc2c1=O)NCc1ccc2c(c1)OCO2
    -15%	9%	4	0.2%	0.3	5%	6
CCNC(=S)N/N=C/c1cn(Cc2ccc(F)cc2)c2ccccc12
    -5%	2%	-1	-5.4%	-1.4	-1%	-11
Cc1nn(-c2ccccc2)c(C)c1NC(=O)COC(=O)C1CC(=O)N(CCc2ccccc2)C1 (stereo not given)
    -65%	-23%	3	-11%	·	·	13
COc1ccc(N2CCN(C(=O)CCCOc3cc(=O)n(C)c4ccccc34)CC2)cc1
    -12%	-20%	6	-4.1%	-1.3	-5%	-15
C=CCN1C(=O)c2ccc(C(=O)N3CCN(S(=O)(=O)c4cccc([N+](=O)[O-])c4)CC3)cc2C1=O
    -12%	-23%	-9	1.4%	·	·	0
CCCc1nn2c(=O)cc(CSCC(=O)Nc3nnc(C(C)C)s3)nc2s1
    9%	1%	14	-0.2%	·	13%	7
COc1cccc(/C=C/C(=O)NCCc2ccc3c(c2)OCCO3)c1
    17%	10%	1	-18%	-1.7	-1%	1

Additional records follow.
Every second line gives: gsp agonist	gsp antagonist	TRPV1 PAM	ClpP mod	Menin-MLL FL inh	Sfp inh	D2 PAM
CC(=O)Oc1ccc(N(C(C)=O)S(=O)(=O)c2cccs2)cc1
    17%	2%	-8	-0.5%	-0.2	-7%	-5
COc1cccc(C2CC(=O)Nc3cc(OC)c(OC)cc32)c1 (stereo not given)
    -79%[inhibitor]	-4%	8	·	-0.3	4%	4
COC(=O)c1ccc2c(=O)[nH]c(CSc3nc(-c4ccc(F)cc4)cs3)nc2c1
    1%[15.4 µM]	-13%	7	0.3%	2.6	-1%	-9
Cc1occc1C(=O)N=Nc1c(O)n(C)c2ccccc12
    -12%	17%	19	0.9%	3.2	0%	-16
